Sa RN4220 lethal = growth inhibition of S. aureus RN4220, primary screen, OD600 | 16 h | inhibition, % (no concentration beside the values) | hit rate 0.33% among 330,000 | AID 1259311, 2017;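 active = z-score of -3 or lower and OD600 up to 0.18 on both plates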;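 note: plate controls were untreated cells for no effect and reference antibiotic for full effect; stock transfer was 100 nL into about 80 µL; one replicate is shown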
Mtb hypoxia inh = PubChem AID 1159583. M. tuberculosis hypoxia-regulated fluorescent reporter, fluorescence. fluorescence inhibition, % (concentration not given with the values). hit rate 0.1% among 300,000;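 active = 35 to 45% if threefold the growth effect, above 45% if 1.5-fold the growth effect; inactive = the rest, general growth blockers included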;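 note: wells of about 50 µL received 100 nL stock; 0% = vehicle wells and 100% = reference inhibitor wells; whole bacteria with a GFP reporter of the hypoxia response; strong numbers were not always called active; many hits fall short of the cut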
PrP UTR inh = inhibition of PrP 5' UTR reporter expression | cell-based PrP 5' UTR mRNA reporter, plate reader | inhibition, % (concentration not given with the values) | hit rate 0.35% among 340,000 | AID 488862, 2010;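 active = every replicate at 50% or more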;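 note: 0 = median of the neutral control wells; tested in H4 reporter cells; numbers are from one replicate; inactives centre near -14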
BJeLR viability = MLPCN primary cell-based screen for lethality selective to Ras in HRASV12 cells; BJeLR (HRASV12) viability, CellTiter-Glo ATP luminescence, 48 h; reference of the scale not given here; hit rate 0.17% among 300,000; inhibition, % (concentration not given with the values);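 active = replicate mean above 50%; inconclusive = above 50% but judged a plate artefact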;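 note: 50 nL library stock added to about 25 µL; numbers are from one replicate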
Bead autofluor = flagged as autofluorescent in microsphere protease counterscreen; compound autofluorescence counterscreen, microsphere flow cytometry; hits give high values; fluorescence intensity (test concentration not listed); hit rate 3.1% among 360,000; AID 624483;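 active = at least 3 SD above the mean of all compounds, about 16000 in these data; inconclusive = too few beads counted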;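 note: 100 nL of 1 mM stock went into each well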
ugtP null kill = growth inhibition of ugtP-null S. aureus, primary screen, RN4220 ugtP deletion, OD600. growth inhibition, % (test concentration not listed). 16 h; some inactives read as strong as hits. AID 1259309, 2017. hit rate 0.54% among 330,000;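 active = z-score under -3 and OD600 up to 0.15 on both plates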;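 note: plate controls were untreated wells for no effect and antibiotic for full effect; wells of about 80 µL received 100 nL stock; the first replicate is given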
Mtb hypoxia inh growth = further read-out of Mtb hypoxia inh, marked with its call; growth inhibition, %; measured here: M. tuberculosis growth (absorbance);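 0% = vehicle and 100% = reference antibiotic; read after six days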
The depositor's hits bear a star; ? = inconclusive; · = no result given.

No.	structure	Sa RN4220 lethal	Mtb hypoxia inh	Mtb hypoxia inh growth	PrP UTR inh	BJeLR viability	Bead autofluor	ugtP null kill
1	Clc1ccc(CSc2ncnc3nc[nH]c23)cc1	-2.2	11	9	-9	-3	2536	21
2	Cc1ccc(S(=O)(=O)N2CCCCC2)cc1NC(=O)COC(=O)CNC(=O)c1cc(Cl)cc([N+](=O)[O-])c1	3.2	14	10	-10	4	2219	10
3	O=C(CSc1nc(Cc2ccccc2)nc2ccccc12)c1ccc2c(c1)OCCO2	-6.8	0	3	-7	0	4036	-9
4	Cc1ccc(NC(=O)C2CCCN2c2nn3c(=O)cc(C)nc3s2)cc1 (stereo not drawn)	3.5	4	-3	13	3	6188	2
5	C=CCN1C(=O)/C(=C/c2ccc(-c3ccc(F)cc3)o2)SC1=S	·	·	·	-21	-13	3620	·
6	Cc1ccccc1Cn1cnc2c(nnn2Cc2ccc(F)cc2)c1=O	5.9	3	13	-81	-6	9642	2
7	CCOn1c(=O)c(-c2cccc([N+](=O)[O-])c2)[n+]([O-])c2ccccc21	-1.0	1	3	-6	-1	2457	-10
8	O=S(=O)(NC1CC1)c1ccc(S(=O)(=O)N2CCc3ccccc32)cc1	12	17	9	-31	8	5481	-5
9	CCn1ncc([N+](=O)[O-])c1C(=O)N1CCc2ccccc2C1	4.1	16	-1	-14	-3	6178	-3
10	COc1ccc(NC(=O)CN(C)S(=O)(=O)c2ccccc2)cc1OC	3.8	10	-3	3	2	16554*	0
11	Cc1ccc(CC(=O)N(C)CC(=O)N(CC(C)C)c2c(N)n(CC(C)C)c(=O)[nH]c2=O)cc1C	0.9	-7	11	0	2	5666	6
12	CC(C)(C)C(=O)C[n+]1cccc(C(N)=O)c1	-1.9	-1	2	-10	-5	2490	6
13	COc1cccc(C(=O)c2c(-c3ccccc3)ncc3cc(OC)c(OC)cc23)c1	9.9	-3	9	7	·	3998	4
14	O=C(N/C(=C\c1ccc([N+](=O)[O-])cc1)C(=O)N1CCCCC1)c1ccco1	0.5	3	1	-28	-5	3126	2
15	OCn1c2ccccc2c2ccccc21	2.9	9	3	-6	8	2978	1
16	CCN(CC)C(=S)NC(=O)c1cccnc1	5.5	-4	7	-32	-7	2886	9
17	COc1ccc(NC(=O)CSc2cn[nH]n2)c(OC)c1	-6.9	11	1	3	-4	4162	3
18	CCn1c(CSc2nc3ccccc3s2)nnc1SCC(N)=O	4.6	14	5	-22	9	20063*	5
19	C=CCNc1nc(C(=O)OCC(=O)c2ccc(Cl)cc2)cs1	1.8	8	2	-1	-7	6459	-1
20	COc1ccc(C2CC(c3ccc(Cl)cc3Cl)Nc3nc(N)nn32)cc1 (stereo not drawn)	·	·	·	-35	-8	5449	·
21	CN(Cc1ccccc1)C(=O)COC(=O)c1cc2ccccc2oc1=O	2.3	9	3	-18	·	?	6
22	CC1CC(C)(C)NC(=S)N1CC(=O)NCc1ccc(Cl)cc1 (stereo not drawn)	-0.3	10	10	-9	17	2781	3
23	O=C(Cc1cccs1)Nc1ccc(S(=O)(=O)N2CCCCC2)cc1	1.8	·	·	-8	·	4192	-7
24	Cc1ccc(CNC(=O)C2CC(c3ccccc3C(F)(F)F)=NO2)cc1 (stereo not drawn)	0.7	4	1	-8	-3	3095	-15
25	C/C(Cl)=C\C[N+](C)(C)CC(=O)OCCc1ccccc1	-0.5	3	-7	·	1	4758	5
26	Nc1ccc(C2(c3ccc(N)cc3)c3ccccc3C(=O)c3ccccc32)cc1	-2.9	7	6	-8	-4	4413	4
27	COc1ccc(NC(=O)Cc2ccc(C)c(C)c2)cc1Cl	0.2	4	4	-19	-19	3178	2
28	CC1(CC(=O)Nc2ccccc2)NC(=S)N(c2ccccc2)N1 (stereo not drawn)	0.7	-10	-7	-26	-3	3967	7
29	O=C(NNC(=O)c1cc(-c2ccccc2Cl)nc2ccccc12)c1csc(N2CCOCC2)n1	-2.7	-9	10	-20	5	?	-7
30	CC(C)CC(=O)C1CCCN(C(=O)c2ccc3oc(Cc4ccccc4)nc3c2)C1 (stereo not drawn)	-5.9	-4	5	-8	4	4571	-3
31	COC(=O)c1cccnc1-n1c(=O)c2cccnc2n(Cc2ccc(Cl)cc2)c1=O	0.3	0	6	-20	0	22186*	-8
32	COc1ccc(NC(=O)c2ccccc2-c2ccccc2)c(C)c1	6.4	4	3	-9	-21	4531	6
33	CN(CC(=O)Nc1cccc(F)c1)C(=O)c1ccc(-c2ccc(Cl)cc2)o1	-6.7	6	-3	-31	9	6902	-15
34	CCN1C(=O)CSc2ccc(C(=O)NCc3ccccc3)cc21	3.2	5	8	-15	4	5873	5
35	C/C(=N/NC(=O)c1cccc(Br)c1)C1CC2CCC1C2 (stereo not drawn)	·	·	·	-6	-5	6041	·
36	O=C(c1ccc(Cl)cc1)c1ccc(OCC(O)CN2CCOCC2)cc1 (stereo not drawn)	-6.2	3	9	13	2	2807	-6
37	COC(=O)c1ccc(C=NN2CCN(c3ccccc3)CC2)cc1	-0.3	6	-8	·	·	·	0
38	C=CCSc1nnc(-c2sc(-c3ccccc3)nc2C)n1C	3.0	17	24	-55	-10	6327	2
39	CCOC(=O)/C=C1\CN(C(C)c2ccccc2)S(=O)(=O)c2ccccc21 (stereo not drawn)	·	·	·	-16	0	4027	·
40	Cc1ccccc1-c1nnc(SCC(=O)NCc2ccc3c(c2)OCO3)n1C	1.1	-12	-11	-30	2	2998	-4
41	Cc1cc(C)c(NC(=O)Nc2ccccc2)c(C)n1	5.9	1	-5	-7	·	9705	4
42	CC(C)=CCCC(C)N(C=O)C(C)CCC=C(C)C (stereo not drawn)	6.1	6	-5	-6	-3	3058	2
43	CN(C)C(=O)CSCc1c(Cl)cccc1Cl	1.6	·	·	3	0	4560	1
44	CCOC(=O)C1(Cc2ccccc2C(F)(F)F)CCN(CCCn2cccn2)CC1	4.0	8	3	-8	5	4614	0
45	N#Cc1cccc(NC(=O)N2CCC(c3nc4c(nnn4Cc4cccc(Cl)c4)c(=O)[nH]3)CC2)c1	-6.7	·	·	-6	-10	3182	10
46	CC(Nc1ncnc2sccc12)c1ccccc1 (stereo not drawn)	·	·	·	-8	3	5773	·
47	Clc1ccc(-c2noc(CN3CCCC3)n2)cc1	7.7	·	·	-57	-1	3664	4
48	CCCc1cc(=O)oc2c3c(cc(OCC(=O)N[C@@H](CSC)C(=O)O)c12)OC(C)(C)CC3	-2.6	8	7	-23	-3	3642	17
49	O=C(Nc1cccc(OCC(=O)N2CCOCC2)c1)c1cccc(Cl)c1	28	-6	-11	0	-1	6151	-1
50	CC(=O)c1ccc(NC(=O)/C=C/c2ccc(C)cc2)cc1	-5.8	-8	10	-43	-1	2531	-17

(further entries)
No.	structure	Sa RN4220 lethal	Mtb hypoxia inh	Mtb hypoxia inh growth	PrP UTR inh	BJeLR viability	Bead autofluor	ugtP null kill
51	COc1ccc(CCNC(=O)C(=O)NCc2ccccn2)cc1	2.0	10	-3	-1	-3	4145	-1
52	c1ccc(CN2CCN(CCCNc3ccc4nnc(-c5ccccc5)n4n3)CC2)cc1	7.7	-4	6	-29	0	7353	0
53	CCOc1ccc(Nc2cc(C)nc3ccc(C)cc23)cc1	-3.5	23	30	-5	7	6149	-2
54	CCOC(=O)c1ccc(N2C(=O)C3CCOc4ccccc4C32)cc1 (stereo not drawn)	6.5	10	0	-10	·	2976	6
55	Cc1c(C(=O)NCC(c2ccco2)N2CCCC2)sc2ccccc12 (stereo not drawn)	6.4	12	12	-22	·	6750	-4
56	Cc1ccc(Cn2c(SCC(C)C)nc3c2c(=O)[nH]c(=O)n3C)cc1	-2.5	·	·	11	0	2393	4
57	COc1ccccc1CNC(=O)CCC1N=C2c3ccccc3N=C(SCC(=O)NCC3CCCO3)N2C1=O (stereo not drawn)	3.6	-1	1	-8	-4	4284	9
58	Cc1cnc(NC(=O)c2cccc(S(=O)(=O)N3CCOCC3)c2)s1	3.0	7	1	-13	·	3390	0
59	CNc1ccc(Oc2nc([N+](=O)[O-])nn2C)cc1	13	13	23	-13	-14	3953	5
60	CC(C)(C)NS(=O)(=O)c1ccc(NC(=O)c2cc(-c3ccccc3)nc3ccccc23)cc1	-1.8	1	-3	-7	-8	?	-12
61	COc1ccccc1NC(=O)CC(C)=NNC(=O)C12CC3CC(CC(C3)C1)C2	2.6	4	0	·	·	·	1
62	Cn1c(C(=O)NN=Cc2ccccc2)cc2ccccc21	4.3	8	5	·	·	·	7
63	CC(=O)Nc1ccc(OCCOc2ccc([N+](=O)[O-])cc2)cc1	1.2	0	15	-23	-6	4457	6
64	CCCCNS(=O)(=O)c1cc2c3c(c1)CCN3C(=O)CC2	3.8	13	0	-14	3	4487	12
65	C=CCOC(=O)C1=C[C@H](c2cn(C(C)=O)c3ccccc23)C[C@H](OCc2ccc(CO)cc2)O1	·	·	·	-16	-1	4034	·
66	CCOC(=O)c1sc(Nc2nc3cc4c(cc3s2)OCO4)cc1C	-13	9	-4	-34	-3	2568	18
67	C/C=C\C(=O)Nc1cccc(C2=NOC3(C2)C[C@@H](C(N)=O)N(C(=O)C2(C)CC2)C3)c1 (stereo partly drawn)	·	·	·	2	-2	3743	·
68	Cc1cc(C)c(S(=O)(=O)N/N=C/c2ccc3c(c2)OCO3)c(C)c1	·	·	·	-9	-3	6446	·
69	CC(C)c1ccc(/C=N/Nc2ccc(C(=O)O)cc2)cc1	·	·	·	63*	1	2008	·
70	O=C(CCc1nc2ccccc2[nH]1)NC1CCCCC1	6.3	-2	10	-26	-16	5980	13
71	N#Cc1ccc(COC(=O)c2ccc3c(c2)OCO3)cc1	6.3	-5	-9	-18	-12	4965	-1
72	COc1cc(NC(=O)COC(C)=O)cc(OC)c1OC	4.3	0	-1	-15	9	4329	3
73	CN1CCN(S(=O)(=O)c2ccc(NC(=S)NC(=O)c3ccccc3)cc2)CC1	-1.9	·	·	-9	1	4296	46
74	Cc1csc2ncc(C(=O)NCc3ccccn3)c(=O)n12	7.2	12	11	-50	-1	5634	12
75	O=C(c1ccco1)N1CCN(Cc2c(Cl)cccc2Cl)CC1	4.5	-4	2	-35	7	3415	4
76	O=S1(=O)CC(O)C(Nc2ccc(Cl)cc2)C1 (stereo not drawn)	2.3	·	·	0	3	3494	-4
77	COc1ccc(-n2cnnc2SCC(=O)Nc2cc(C)on2)cc1	2.4	-4	0	-10	-3	4081	-5
78	Nc1nc(SCC(=O)N2CCCC2)[nH]c(=O)c1NC(=O)c1cccs1	1.6	7	13	-31	-3	3459	7
79	O=C(Nc1cccc2ncccc12)c1cccnc1	4.8	11	3	74*	-10	2422	2
80	O=C(O)c1cccc([N+](=O)[O-])c1C(=O)Nc1ccc2ccccc2c1	·	·	·	-32	-10	4176	·

Down the list, as entered above.
Nos. 39 to 49 in ugtP null kill read ·, -4, 4, 2, 1, 0, 10, ·, 4, 17, -1
Nos. 39 to 49 in Mtb hypoxia inh read ·, -12, 1, 6, ·, 8, ·, ·, ·, 8, -6
Nos. 39 to 49 in Bead autofluor read 4027, 2998, 9705, 3058, 4560, 4614, 3182, 5773, 3664, 3642, 6151

Additional compounds:
No.	structure	Sa RN4220 lethal	Mtb hypoxia inh	Mtb hypoxia inh growth	PrP UTR inh	BJeLR viability	Bead autofluor	ugtP null kill
81	CCCNC(=O)N1C2CCC1C(C(=O)OC)=C(c1ccc(F)cc1OCc1ccccc1)C2 (stereo not drawn)	2.7	3	9	·	·	·	6
82	O=C(Nc1cccc(C(F)(F)F)c1)c1cc[n+]([O-])cc1	0.1	6	-3	-25	0	4032	2
83	C=CCNC(=S)NN=C(C)c1cccc(NC(C)=O)c1	3.1	-1	4	·	·	·	5
84	CCOC(=O)CN1C(=O)N[C@@H](c2ccco2)C(C(C)=O)=C1C	·	·	·	-18	-4	4151	·
85	Cc1cc(Cl)c(OCCCn2cncn2)c(Br)c1	1.0	·	·	-17	-9	4167	5
86	O=C1c2ccccc2-c2c1cccc2C(=O)N1CCN(C(=O)c2ccco2)CC1	7.2	7	14	-25	3	5050	-7
87	C=CCn1c(=N)n(CC(=O)c2cccc([N+](=O)[O-])c2)c2ccccc21	8.0	8	4	-28	-3	4354	4

Full records, quoted from the list:
Cc1cc(Cl)c(OCCCn2cncn2)c(Br)c1 is listed as Sa RN4220 lethal = 1.0; Mtb hypoxia inh = ·; Mtb hypoxia inh growth = ·; PrP UTR inh = -17; BJeLR viability = -9; Bead autofluor = 4167; ugtP null kill = 5
O=C(Nc1cccc(C(F)(F)F)c1)c1cc[n+]([O-])cc1 is listed as Sa RN4220 lethal = 0.1; Mtb hypoxia inh = 6; Mtb hypoxia inh growth = -3; PrP UTR inh = -25; BJeLR viability = 0; Bead autofluor = 4032; ugtP null kill = 2

This is a random part of the collection; overall some 4% were active at least once.
